VDR inh: vitamin D3 receptor (human) inhibition; P11473; VDR-SRC2-3 peptide fluorescence polarization, 2 h; Potency, µM, for inactives: max response, negative = inhibition, hits mostly inhibitors; 400,000 tested, 0.93% active; AID 504847; active = well fitted inhibition curve with a large enough effect; inconclusive = small, poorly fitted or top-dose-only effect, or another doubt; inactive = no such curve, though single readings can be large or run the other way; note: series mostly up to about 120 µM
Target sequence (P11473 whole entry, looked up): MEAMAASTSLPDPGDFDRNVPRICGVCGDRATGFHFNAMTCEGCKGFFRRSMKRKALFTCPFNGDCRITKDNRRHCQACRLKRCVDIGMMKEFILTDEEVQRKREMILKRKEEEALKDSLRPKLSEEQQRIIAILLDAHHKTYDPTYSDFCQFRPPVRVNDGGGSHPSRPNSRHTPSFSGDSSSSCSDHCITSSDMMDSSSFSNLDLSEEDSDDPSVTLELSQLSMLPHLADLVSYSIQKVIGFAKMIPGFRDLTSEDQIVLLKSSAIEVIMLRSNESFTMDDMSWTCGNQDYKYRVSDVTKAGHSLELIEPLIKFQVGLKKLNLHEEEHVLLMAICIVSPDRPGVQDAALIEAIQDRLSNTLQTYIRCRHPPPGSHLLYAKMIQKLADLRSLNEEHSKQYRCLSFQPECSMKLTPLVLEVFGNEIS
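Compounds are added to VDR with labelled SRC2-3 coactivator peptide and held 2 h at room temperature. Inhibition of the VDR–peptide interaction is then read as a change in fluorescence polarization.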
* marks the source's active call; other numbers are inactive results; & = joins results of further samples; [ ] = dose if it differs, or a comment. % is set by controls: 0 for no effect and ±100 for the full control effect; potency is the fitted concentration of half-maximal effect.

What do the screens show for `Cc1cc(C(=O)N/N=C2\CC(=O)CC(C)(C)C2)c(C)n1-c1ccc(F)cc1`?
VDR inh: inconclusive

How did COc1ccc(/C=C/C(=O)c2sc(-c3ccccc3)nc2C)cc1 do in these assays?
VDR inh: inconclusive

Results for O=C(O)c1ccccc1NS(=O)(=O)c1ccc(N/N=C/c2ccc(O)c(O)c2)c([N+](=O)[O-])c1 ?
VDR inh: -11%

Results for O=C(NCc1ccccc1Cl)C1CCN(C(=O)N2CCOc3ccccc32)CC1 ?
VDR inh: -2%

What do the screens show for `Cc1cccc(N2CCN(C(=O)c3ccc4c(c3)N(Cc3ccccc3)C(=O)c3ccccc3S4(=O)=O)CC2C)c1` (stereo not drawn)?
VDR inh: -16%

What do the screens show for `CCCn1c2ccccc2c2cnn(CC(=O)N3CCN(c4ccccc4F)CC3)c(=O)c21`?
VDR inh: 14%

Results for CN(Cc1cnccn1)C(=O)CC1C(=O)NCCN1Cc1c(F)cccc1Cl (stereo not drawn) ?
VDR inh: -10%

Results for CCCCC(Sc1nc2cc3c(cc2c(=O)n1CCCC(=O)NCc1ccc(OC)cc1)OCO3)C(=O)OCC (stereo not drawn) ?
VDR inh: 14%

What do the screens show for `COC(=O)c1ccccc1NS(=O)(=O)c1ccc(NC(C)=O)cc1`?
VDR inh: -3%

How did CCCc1cc(=O)n2[nH]c(NC(=O)c3ccc(C(C)(C)C)cc3)nc2n1 do in these assays?
VDR inh: 5%

How did C=CCn1c(N)nc2ccccc21 do in these assays?
VDR inh: 14%

Results for Cc1ccc(-n2c(O)c(C=Nc3ccccc3-c3n[nH]c(=S)[nH]c3=O)c3ccccc3c2=O)cc1C ?
VDR inh: -1%

Results for O=c1oc(-c2cccs2)nc2scc(-c3cccs3)c12 ?
VDR inh: -2%

Results for CCN(CC)S(=O)(=O)c1cc(NS(=O)(=O)c2cccc(C(=O)O)c2)ccc1C ?
VDR inh: 16%

What do the screens show for `COC(=O)c1cc2nc(-c3ccccc3)cc(C)n2n1`?
VDR inh: 4%

Filtered by structure: those above with a halogen (four)
What do the screens show for `Cc1cc(C(=O)N/N=C2\CC(=O)CC(C)(C)C2)c(C)n1-c1ccc(F)cc1`?
VDR inh: inconclusive

Results for O=C(NCc1ccccc1Cl)C1CCN(C(=O)N2CCOc3ccccc32)CC1 ?
VDR inh: -2%

What do the screens show for `CCCn1c2ccccc2c2cnn(CC(=O)N3CCN(c4ccccc4F)CC3)c(=O)c21`?
VDR inh: 14%

Results for CN(Cc1cnccn1)C(=O)CC1C(=O)NCCN1Cc1c(F)cccc1Cl (stereo not drawn) ?
VDR inh: -10%

(listing goes on)
How did COC(=O)[C@@H]1CC(O)CN1C(=O)C12CC3CC(CC(C3)C1)C2 (stereo partly drawn) do in these assays?
VDR inh: -14%

What do the screens show for `Cc1nn(S(=O)(=O)c2ccc(C(C)(C)C)cc2)c(C)c1S(=O)(=O)N1CCCCCC1`?
VDR inh: 17%

What do the screens show for `Cc1ccccc1C1NS(=O)(=O)N=C1N` (stereo not drawn)?
VDR inh: -1%

What do the screens show for `Cc1ccc(-c2nn(CCC(=O)NCC3CCCO3)c(=O)c3ccccc23)cc1` (stereo not drawn)?
VDR inh: -15%

What do the screens show for `O=C(Nc1ccccc1)c1ccc(S(=O)(=O)Nc2cccc(O)c2)cc1`?
VDR inh: 8%

How did CC(C)C(C(=O)NCC1CCCO1)N(Cc1ccco1)C(=O)CNS(=O)(=O)c1ccc(F)cc1 (stereo not drawn) do in these assays?
VDR inh: 31%[activator]

How did COc1ccc(NS(=O)(=O)c2ccc(Oc3c(C#N)cccc3C#N)cc2)cc1 do in these assays?
VDR inh: 10%

What do the screens show for `CC1(C)CC(=O)c2c(-c3cccnc3)n[nH]c2C1`?
VDR inh: 11%

How did O=C1C2C3C=CC(C4CC34)C2C(=O)N1/N=C/c1ccc(-c2ccc(Cl)cc2[N+](=O)[O-])o1 (stereo not drawn) do in these assays?
VDR inh: 10%

Results for CC(=O)NC(Cc1cc(C)ccc1C)C(=O)N1CCN(C(=O)Nc2ccc(C(C)=O)cc2)CC1 (stereo not drawn) ?
VDR inh: -1%

How did O=C(O)c1ccc(-n2cccc2/C=N\NC(=O)c2cc3cc(Br)ccc3o2)cc1 do in these assays?
VDR inh: -16%

What do the screens show for `Cc1nc(SCC(=O)Nc2nc3ccccc3s2)n[nH]1`?
VDR inh: 8%

How did C=CCNc1oc(C2CCCC2)nc1C#N do in these assays?
VDR inh: -18%

Results for CCOC(=O)C1CCN(S(=O)(=O)c2ccc(Cl)cc2OC)CC1 ?
VDR inh: 0%

What do the screens show for `COc1cc2c(cc1NC(=O)CN(C)Cc1cccc(OC)c1OC)oc1ccccc12`?
VDR inh: -16%

Among those listed so far, these have a Cl atom:
Results for O=C(NCc1ccccc1Cl)C1CCN(C(=O)N2CCOc3ccccc32)CC1 ?
VDR inh: -2%

Results for CN(Cc1cnccn1)C(=O)CC1C(=O)NCCN1Cc1c(F)cccc1Cl (stereo not drawn) ?
VDR inh: -10%

How did O=C1C2C3C=CC(C4CC34)C2C(=O)N1/N=C/c1ccc(-c2ccc(Cl)cc2[N+](=O)[O-])o1 (stereo not drawn) do in these assays?
VDR inh: 10%

Results for CCOC(=O)C1CCN(S(=O)(=O)c2ccc(Cl)cc2OC)CC1 ?
VDR inh: 0%

The results go on.
What do the screens show for `CCOC(=O)c1cnn2c(N)c(C#N)cnc12`?
VDR inh: -10%

How did COc1ccc2cc([C@H](C)C(=O)N(C)Cc3ccccc3N3CCCC3)ccc2c1 do in these assays?
VDR inh: 15%

What do the screens show for `CC(SC(C)C(=O)NN=Cc1ccc(F)cc1)C(=O)NN=Cc1ccc(F)cc1` (stereo not drawn)?
VDR inh: 0%

What do the screens show for `Nc1cc(C(=O)O)ccc1N1CCCCC1`?
VDR inh: -10%

How did Cc1ccc2[nH]cc(CCNC(=O)c3ccc4c(c3)OCO4)c2c1 do in these assays?
VDR inh: -1%

Results for CCN(CC)C(=O)C(C)OC(=O)c1ccc(O)cc1 (stereo not drawn) ?
VDR inh: 0%

What do the screens show for `Cc1cc(C)nc(NS(=O)(=O)c2ccc(Br)cc2)n1`?
VDR inh: -4%

How did CCOc1ccccc1N1CC(C(=O)Nc2c(C)n(C)n(-c3ccccc3)c2=O)CC1=O (stereo not drawn) do in these assays?
VDR inh: -11%

How did Cn1c(CCNC(=O)c2ccco2)nc2cc(NS(=O)(=O)c3ccccc3)ccc21 do in these assays?
VDR inh: -5%

What do the screens show for `O=[N+]([O-])c1cccc(NC(=S)NCc2ccncc2)c1`?
VDR inh: -27%

How did CCOC(=O)c1c(C)[nH]c(C(=O)COC(=O)CSCC(=O)N(CC)CC)c1C do in these assays?
VDR inh: 8%

Results for OCCNCCCOc1cc(Cl)ccc1Cl ?
VDR inh: 3%

What do the screens show for `N=C1/C(=C\c2ccc(SCc3ccccc3)o2)C(=O)N=C2SC=NN12`?
VDR inh: inconclusive

Results for CC(=O)c1ccc(N2CCN(S(=O)(=O)c3cn(C)c(C)n3)CC2)cc1 ?
VDR inh: 0%

How did O=C(N/N=C/c1ccc(Br)s1)c1cccs1 do in these assays?
VDR inh: -4%

Results for NC(=O)CSc1nc2cc(Cl)ccc2c(=O)n1C1CCCCC1 ?
VDR inh: -9%

What do the screens show for `Cc1ccc(CN2CCCN(Cc3cc(C)ccc3C)S2(=O)=O)cc1`?
VDR inh: -4%

What do the screens show for `CCOC(=O)C1CCN(c2c(C(=O)c3ccccc3)cnc3ccc(Cl)cc23)CC1`?
VDR inh: -7%

Results for O=Cc1cn(-c2ccccc2)nc1-c1ccc(F)cc1 ?
VDR inh: -3%

How did CC(=O)c1ccc(NC(=O)CN2C(=O)c3cccnc3Sc3ccccc32)cc1 do in these assays?
VDR inh: 4%

How did COc1ccc(C2Nc3cccc4cccc(c34)N2)cc1Br do in these assays?
VDR inh: -24%

How did O=C(O)c1cccc(NC2=C(N3CCOCC3)C(=O)c3ccccc3C2=O)c1 do in these assays?
VDR inh: 71µM*

How did O=C(NCc1ccccc1F)C1CCCN1C(=O)Nc1ccc(Cl)cc1 (stereo not drawn) do in these assays?
VDR inh: -6%

Results for O=C(O)c1cc(O)ccc1N=Nc1ccccc1 ?
VDR inh: -8%

How did Cn1c(SCc2c(F)cccc2Cl)nnc1-c1cccs1 do in these assays?
VDR inh: 9%

How did O=C(Cc1cn2ccsc2n1)Nc1ccccn1 do in these assays?
VDR inh: inconclusive

How did CCCNC(=O)Cn1c2ccccc2c2nc(=O)cc(C)n21 do in these assays?
VDR inh: inconclusive

How did CCOC(=O)c1cc2c(=O)n3ccccc3nc2n(CC(C)C)c1=NC(=O)COc1ccc(Cl)cc1 do in these assays?
VDR inh: 3%

Results for COc1ccc(-c2[nH]ncc2CN2CCCN(c3ccccc3)CC2)c(F)c1 ?
VDR inh: 6%

Results for CCOC(=O)COc1ccccc1/C=C\[N+](=O)[O-] ?
VDR inh: 11µM*

How did CC1CCN(S(=O)(=O)c2ccc3c(c2)oc(=O)n3CC(=O)O)CC1 do in these assays?
VDR inh: 0%

How did Cc1cc(NC(=O)C2CCCN(S(=O)(=O)c3cnc[nH]3)C2)ccc1Br (stereo not drawn) do in these assays?
VDR inh: -10%

What do the screens show for `COC(=O)C1=C(C(=O)OC)C2(OC1c1cccc(F)c1)C(=O)c1ccccc1C2=O` (stereo not drawn)?
VDR inh: 8%

What do the screens show for `COC(=O)c1c(O)c2ccccc2[nH]c1=O`?
VDR inh: -4%

What do the screens show for `CC(C)Sc1nnc(-c2c[nH]c3ccccc23)n1C`?
VDR inh: 6%

Results for COn1c(-n2nc(C)cc2C)nc2ccccc2c1=O ?
VDR inh: 3%

How did O=C(Cn1c(=O)n(-c2ccccc2)c(=O)c2sccc21)NCc1ccccc1 do in these assays?
VDR inh: 3%

Results for CC12CCC(=O)N1C(C(=O)Nc1cccc(S(=O)(=O)N3CCCCC3)c1)CS2 (stereo not drawn) ?
VDR inh: -10%

What do the screens show for `CC(C)(C)OC(=O)NCC1CCN(S(=O)(=O)Cc2ccccc2)CC1`?
VDR inh: 1%

Results for Cc1ccc(OCc2n[nH]c(=S)n2-c2ccccc2)cc1 ?
VDR inh: inconclusive

What do the screens show for `CC(C)C[C@H](NC(=O)C1CC(=O)N(c2ccc3c(c2)OCO3)C1)C(=O)NCc1ccco1` (stereo partly drawn)?
VDR inh: -5%

How did COc1ccc(CCN2C(=O)CC(NCCc3ccc(S(N)(=O)=O)cc3)C2=O)cc1OC (stereo not drawn) do in these assays?
VDR inh: 7%

How did COc1ccc(-c2c(-c3cc(OC)cc(OC)c3)n(C)c3ccc(-c4ccc(OC)nc4)cc23)cc1 do in these assays?
VDR inh: inconclusive

Results for O=C(N/N=C/c1cccnc1)c1ccc(CN2c3cccc4cccc(c34)S2(=O)=O)cc1 ?
VDR inh: -2%

What do the screens show for `O=C1CN(C(=O)c2cccc(S(=O)(=O)N3CCCC3)c2)c2ccccc2N1`?
VDR inh: -13%

Results for O=C(Nc1ccc(Cl)cc1)c1ccc2c(c1)N(Cc1ccccc1)C(=O)c1ccccc1S2(=O)=O ?
VDR inh: 11%

How did CN(Cc1ccccc1)S(=O)(=O)c1nnc(NC(=O)c2cccc(Cl)c2)s1 do in these assays?
VDR inh: -4%

How did COc1ccc(C(=O)NCC(c2cccs2)S(=O)(=O)c2cccs2)cc1 (stereo not drawn) do in these assays?
VDR inh: -3%

How did Cc1cc(C)cc(NC(=O)CSc2nc3nc(C)cc(C)n3n2)c1 do in these assays?
VDR inh: -6%

How did CCOC(=O)c1cc(C)n(-n2cnnc2)c1C do in these assays?
VDR inh: 9%

Results for COc1ccc(NC(=O)Cn2c(=O)n(-c3ccc(OC)cc3)c(=O)c3sc4ccccc4c32)cc1 ?
VDR inh: -9%

What do the screens show for `CCCCCCCCCCCCCCCCCCO`?
VDR inh: 4%

Results for COC(=O)C1=COC(O[C@H]2OC(CO)[C@H](O)C(O)C2O)[C@H]2C1C(=O)C[C@@H]2C (stereo partly drawn) ?
VDR inh: 0%

How did C#CCOc1ccc(C2C(C#N)=C(N)Oc3cc(O)ccc32)cc1 (stereo not drawn) do in these assays?
VDR inh: inconclusive

What do the screens show for `COC(=O)Cc1ccc(NC(=S)N2CCN(c3cc(Cl)ccc3C)CC2)cc1`?
VDR inh: -8%

Results for COc1ccc(CNc2ncnc3ccccc23)cc1 ?
VDR inh: 28%

What do the screens show for `COc1cccc(NS(=O)(=O)c2c(C(=O)N3CCCCCC3)c(C)n(C)c2C)c1`?
VDR inh: 25%

How did COc1ccc(CNC(=O)c2ccc(Cn3nc(C)c([N+](=O)[O-])c3C)o2)cc1 do in these assays?
VDR inh: 2%

Results for COC(=O)c1ccc2c(=O)n(CCCCCC(=O)NCc3ccc(OC)cc3)c(=O)[nH]c2c1 ?
VDR inh: 10%

What do the screens show for `COc1ccc(OC)c(C(=O)COC(=O)c2c(OC)cccc2OC)c1`?
VDR inh: -9%

Results for O=C1OCCN1C(=O)[C@H]1[C@H](c2ccc(F)cc2)C(c2ccccc2)=NN1c1ccc(Br)cc1 ?
VDR inh: 2%&0%

Results for O=C(Cn1nnc2ccccc2c1=O)N1CCCc2ccccc21 ?
VDR inh: 24%

What do the screens show for `CC(=O)Nc1ccc(Nc2ncnc3c2cnn3-c2cccc(C)c2)cc1`?
VDR inh: 15%

What do the screens show for `CCOCCCNC(=O)c1cn(CC)c2ccc(S(=O)(=O)N3CCc4ccccc4C3)cc2c1=O`?
VDR inh: -7%

Results for COc1ccc(NC(=S)N2CCN(Cc3ccc(C)cc3)CC2)cc1 ?
VDR inh: 8%

Results for CCOC(=O)CNC(=O)CSc1ncnc2c1cnn2-c1ccc(OC)cc1 ?
VDR inh: -3%

Results for COc1ccccc1/C=C/C1=NC(=C\N(C)C)/C(=O)O1 ?
VDR inh: 40%[activator]

Results for Cc1cccc(C2=NN(c3ccccc3)[C@H](CO)[C@H]2C)c1 ?
VDR inh: -20%

Bioassay records from PubChem.

Only part of the results is shown (hit frequency here may not be typical).
